Lassa entry inh – qHTS for Inhibitors of binding or entry into cells for Lassa Virus; Lassa virus pseudotype entry inhibition, cell reporter; control for the full effect not named in the record; Potency, µM (series often up to 37.9 µM), for the others: top-dose activity change, negative = inhibition, actives largely listed as inhibitors; actives 1.2% (n = 300,000); active means well fitted inhibition curve with a large enough effect; inconclusive means small, poorly fitted or top-dose-only effect, or effect the other way; inactive means flat fitted curve, though single readings scatter; tested in HEK293 cells; note: % is set by controls: 0 for no effect and ±100 for the full control effect; nearly all actives have a fitted effect of over 50% in size; luciferase read-out
Cruzain inh noDet – qHTS Assay for Promiscuous and Specific Inhibitors of Cruzain (without detergent) | Cruzipain (Trypanosoma cruzi), P25779 | purified cruzain, Z-FR-AMC fluorescence, no detergent | Potency, µM, for inactives: max response, negative = inhibition, most hits filed as inhibitors | actives 2.3% (n = 200,000);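 note: plate controls were enzyme without inhibitor for no effect and buffer without enzyme for full effect; nearly all actives have a fitted effect of over 40% in size; top concentration of the series not given in the record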
Target sequence (P25779 123-467 limits assumed): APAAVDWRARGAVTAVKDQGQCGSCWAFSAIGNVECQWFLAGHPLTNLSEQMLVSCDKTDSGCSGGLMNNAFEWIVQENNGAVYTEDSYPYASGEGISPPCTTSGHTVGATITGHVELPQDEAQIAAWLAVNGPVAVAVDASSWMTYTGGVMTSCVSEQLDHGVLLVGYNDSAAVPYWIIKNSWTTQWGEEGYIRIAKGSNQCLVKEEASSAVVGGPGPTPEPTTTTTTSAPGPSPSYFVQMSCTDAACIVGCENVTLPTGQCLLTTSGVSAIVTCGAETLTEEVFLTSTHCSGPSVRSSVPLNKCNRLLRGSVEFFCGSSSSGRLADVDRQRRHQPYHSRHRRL
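Purified cruzain at 1.5 nM, pre-incubated 15 min with compound at room temperature in 100 mM sodium acetate pH 5.5, 5 mM DTT, 0.00005% Triton X-100. Reaction started with 2 uM Z-FR-AMC; AMC fluorescence increase over 60 s gives rate.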
NS1 inh – qHTS Assay for Inhibitors of Influenza NS1 Protein Function; S. cerevisiae slowed by influenza A NS1, growth recovery by OD600; actives 0.4% (n = 270,000); Potency, µM (series often up to 46.1 µM), inactives show at the highest dose activity, positive = more growth; AID 2326, 2010; active means well fitted rising curve with a large enough effect; inconclusive means small, poorly fitted or top-dose-only effect; inactive means no such curve, though single readings can be large or run the other way; note: nearly all actives have a fitted effect of over 50% in size
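Growth recovery, yeast-based: influenza A NS1 expressed in S. cerevisiae causes slow growth, and suppressors are detected by OD600. The parent strain without NS1 is used as positive control.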
SARS PLP yeast – qHTS of Yeast-based Assay for SARS-CoV PLP; S. cerevisiae expressing SARS-CoV PLpro, growth rescue; control for the full effect not named in the record; Potency, µM (series often up to 32.9 µM), inactives show at the highest dose activity, positive = growth rescue; actives 0.19% (n = 330,000); AID 485353, 2010; active means well fitted rising curve with a large enough effect; inconclusive means small, poorly fitted or top-dose-only effect; inactive means no such curve, though single readings can be large or run the other way; note: 0% is about no effect; nearly all actives have a fitted effect of over 55% in size; growth read by luminescence after 48 h
Cruzain Triton – qHTS Assay for Promiscuous and Specific Inhibitors of Cruzain (with detergent). actives 0.43% (n = 200,000). Potency, µM, for inactives: max response, negative = inhibition, actives largely listed as inhibitors. purified cruzain, Z-FR-AMC fluorescence, 0.01% Triton. Cruzipain (Trypanosoma cruzi), P25779;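 note: plate controls were neutral wells for no effect and buffer without enzyme for full effect; nearly all actives have a fitted effect of over 40% in size; top concentration of the series not given in the record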
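Sodium acetate buffer (100 mM, pH 5.5) containing 5 mM DTT and 0.01% Triton X-100 hosted 1.5 nM cruzain and test compound for 15 min at room temperature. Cleavage of 2 uM Z-FR-AMC was then tracked by fluorescence.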
RE007 growth inh – qHTS Assay for Inhibitors of the HIV-1 protein Vpr; AID 651644, 2012; S. pombe RE007 Vpr strain, BacTiter-Glo ATP luminescence, 24 h; control for the full effect not named in the record; Potency, µM (series often up to 92.2 µM), inactives show at the top dose activity change, negative = less growth; actives 0.21% (n = 360,000); active = well fitted falling curve with a large enough effect; inconclusive = small, poorly fitted or top-dose-only effect; inactive = no such curve, though single readings can be large or run the other way;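 note: % is set by controls: 0 for no effect and ±100 for the full control effect; nearly all actives have a fitted effect of over 50% in size; the assay follows cell death caused by Vpr and the record does not say whether a fall means rescue or toxicity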
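Fission yeast strain RE007, carrying one chromosomally integrated HIV-1 vpr copy, was seeded at OD 0.01 in PMG+AL medium with 23 nL pinned compound. After 24 h at 30 °C and 99% humidity, viability was read by BacTiter-Glo luminescence.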
2A StopGo – High Throughput Screening for Foot and Mouth Disease Virus Antivirals; human cells with a luciferase reporter of 2A StopGo recoding; control for the full effect not named in the record; Potency, µM (top dose mostly 57.9 µM), for inactives: at the highest dose signal change, negative = less light; actives 1.2% (n = 410,000); AID 1159524, 2015; active = well fitted falling curve with a large enough effect; inconclusive = small, poorly fitted or top-dose-only effect; inactive = no such curve, though single readings can be large or run the other way; tested in HEK293T cells; note: % is set by controls: 0 for no effect and ±100 for the full control effect; nearly all actives have a fitted effect of over 45% in size; luciferase light after 4 h
MARV entry inh – qHTS for inhibitors of binding or entry into cells for Marburg Virus. Marburg virus pseudotyped entry inhibition, cell reporter; control for the full effect not named in the record; about a third of the inactives were read at about 46 µM. Potency, µM (doses to about 37.8 µM), inactives show at the top dose activity change, negative = inhibition, usual class: inhibitors. actives 1.8% (n = 300,000). AID 540276, 2011; active = well fitted inhibition curve with a large enough effect; inconclusive = small, poorly fitted or top-dose-only effect, or effect the other way; inactive = flat fitted curve, though single readings scatter; tested in HEK293 cells; about a fifth of its hits are not listed in these tables; note: % is set by controls: 0 for no effect and ±100 for the full control effect; luciferase read-out
* marks the source's active call; other numbers are inactive results; ? = inconclusive; · = no result given; & = joins results of further samples; [ ] = remark or other dose. Unless noted, calls come from the whole dose curve; as a rule, active = well fitted curve in the direction sought with a large enough effect; inconclusive = small, poorly fitted or top-dose-only effect, or another doubt; inactive = no such curve, though single readings can be large; an effect the other way counts as inactive or inconclusive. Potency is the fitted concentration of half-maximal effect. Random draw from the library, and some 4.7% of all compounds hit somewhere here.

Results follow in this order: Lassa entry inh	Cruzain inh noDet	NS1 inh	SARS PLP yeast	Cruzain Triton	RE007 growth inh	2A StopGo	MARV entry inh
> Cc1ccc(S(=O)(=O)NC(CC(=O)NCC2CCCO2)c2ccco2)cc1 (stereo unspecified)
  6%	6%	1%	-1%	2.3%	6%	-21%	-109%
> Cc1cc(-c2ccc(C)c(S(=O)(=O)N3CCN(c4ccc(F)cc4)CC3)c2)on1
  ?	·	0%	0%	·	-15%	?	?
> O=C(CN1CCN(Cc2ccccc2)CC1)NCCc1ccccc1
  -4%	·	6%	6%	·	-8%	3%	?
> CCc1nnc(NC(=O)c2ccc(S(=O)(=O)N3CCN(Cc4ccccc4)CC3)cc2)s1
  -17%	?	1%	6%	4.1%	4%	·	-2%
> COc1ccc(/C(O)=C2/C(=O)C(=O)N(CC3CCCO3)C2c2cccc(OC)c2)cc1 (stereo unspecified)
  17%	-14%	2%	-1%	-4.9%	3%	·	4%
> O=C(Oc1cccc(Nc2ncnc3ccccc23)c1)c1ccccc1Cl
  -13%	-12%	-23%	6%	-1.8%	?	18µM*	?
> CC1CCCC(NC(=O)CSc2ncccn2)C1C (stereo unspecified)
  3%	·	·	0%	·	10%	-1%	3%
> Cc1cccc(N=C2CSC(=O)N2)c1
  10%	·	·	1%	·	8%	-16%	-7%
> CCOC(=O)C1CCN(C2=C(NS(=O)(=O)c3ccc(Br)cc3)C(=O)c3ccccc3C2=O)CC1
  ·	·	25%	-3%	·	-19%	-17%	·
> COCCN(Cc1cn[nH]c1-c1ccc2cc(OC)ccc2c1)C(C)C
  8%	·	-26%	0%	·	-9%	47%[activator]	?
> O=C(Nc1nc2c(cc3c4c(cccc42)CC3)s1)c1ccccc1Cl
  ?	?	5%	-17%	-5.3%	-6%	16%	?
> CCOC(=O)c1sc2nc(N3CCCC3)c3c(c2c1N)CC(C)(C)OC3
  11%	9%	3%	1%	-6.6%	-3%	7%	17%&17%
> c1ccc(-c2csc3ncnc(N4CCN(Cc5ccc6c(c5)OCO6)CC4)c23)cc1
  ·	·	7%	-2%	·	-4%	?	·
> COc1cc(S(=O)(=O)NCCN2CCOCC2)c(OC)cc1Cl
  -8%	-2%	-4%	2%	-1.2%	-11%	101%[activator]	16%
> Cc1ccc(/C=C2\C(=O)ON=C2c2ccccc2)o1
  -6%	·	3%	0%	·	-9%	-4%	-9%[46.1 µM]
> CCOC(=O)N1CCN(C(=O)c2ccc(S(=O)(=O)c3ccc(C)cc3)c(NC(C)=O)c2)CC1
  -22%	5%	-6%	0%	-2.4%	-9%	-6%	-30%&-30%
> O=C(Nc1ccc2c(c1)nc1n2CCN(C2CCCCC2)C1)NC1CCCCC1
  ·	?	12%	0%	-4.5%	·	·	-1%
> Cc1cc(Nc2ccccc2)nc(-c2ccccc2O)n1
  8%	-8%	-89%	-8%	-13%	?	9%	2%
> O=C1C(=O)N(CC(=O)N2CCCC2)c2ccccc21
  3%	·	·	1%	·	5%	-2%	13%[46.1 µM]
> O=C(Cc1ccc(Br)cc1)Nc1ccccc1Cl
  -10%	5%	10%	6%	1.2%	5%	-2%	0%
> Cc1onc(C(=O)NN)c1-c1csc(COc2ccc(Cl)cc2)n1
  -3%	·	14%	-1%	·	-1%	-1%	?
> CC(C)Sc1nc2c([nH]1)c(=N)ncn2Cc1ccccc1
  ·	·	-2%	0%	·	-9%	-25%	·
> CCc1cc2ccc(C)cc2nc1SCC(=O)NNC(=O)c1ccco1
  -2%	3%	3%	2%	-4.6%	12%	-11%	-5%
> CCc1nnc(NC(=O)CSc2ncnc3scc(-c4ccc(C)cc4)c23)s1
  -3%	?	12%	-4%	-2.3%	-14%	-13%	?
> COc1cccc(NC(=O)CN(C)C(C)C(=O)NC(C)c2ccc(Cl)cc2Cl)c1 (stereo unspecified)
  -7%	·	·	-6%	·	36%	-2%	1%
> COc1cc(/C=C/C(C)=O)cc(OC)c1OC
  -18%	-10%	9%	16%	-0.5%	-7%	?	-23%
> COc1ccc(-c2nc(CN(CC3CCC(=O)N3)C(C)C)c(C)o2)c(C)c1C (stereo unspecified)
  ?	·	-1%	-1%	·	-24%	?	-11%[46.1 µM]
> CCCc1nc2scc(-c3ccccc3)c2c(=O)n1N
  5%	-5%	-35%	-2%	-1.9%	-10%	-26%	1%
> COc1ccc(OC)c(C2C/C(=N/O)C(C)C(c3cc(OC)ccc3OC)N2)c1 (stereo unspecified)
  -5%[46.1 µM]	·	·	·	·	4%	-14%	-17%[46.1 µM]
> Cc1nc(SCCOc2ccccc2F)[nH]c(=O)c1Cc1ccccc1
  -22%&0%[46.1 µM]	-15%	·	6%	-5.3%	0%	?	?
> COc1ccccc1NC(=O)Cn1nc(-c2ccc(Cl)cc2)c2ccccc2c1=O
  1%	8%	12%	2%	-0.7%	-6%	2%	-27%[46.1 µM]
> Cc1cc(C)cc(NC(=S)N2CCC(NC(=O)C3CC3)CC2)c1
  1%	·	1%	-19%	·	3%	9%	17%[46.1 µM]
> O=C(Nc1ccc(S(=O)(=O)Nc2ccnn2-c2ccccc2)cc1)C(F)(F)F
  -2%[46.1 µM]	·	8%	-2%	·	12%	4%	2%[46.1 µM]
> O=C(COC(=O)CCCSc1nc2ccccc2[nH]1)Nc1cccc(F)c1
  20%	1%	-5%	11%	-7.0%	0%	-5%	3%
> Cc1cccc(OCC(=O)Nc2ccccc2-c2ccccc2)c1
  11%	?	9%	-7%	-2.3%	-10%	-25%	-14%
> Cc1ccccc1NNC(=O)C(=O)NNc1ccccc1C
  ·	·	-1%	0%	·	33%	2%	·
> c1ccc2sc(NN=C3CCCCCC3)nc2c1
  ?	·	-7%	-2%	·	?	?	?
> N#C/C(=C\c1ccc(Sc2ccccc2)o1)c1nc2ccccc2[nH]1
  ?	-21%	-5%	1%	-6.8%	12%	-16%	6%
> CC(Cc1ccccc1Sc1ccccc1)N(C)C (stereo unspecified)
  ?	10%	2%	1%	-1.1%	-18%	-19%	?
> Cc1cccc(NC(=O)CCN2CCCCC2)c1
  1%	·	-1%	6%	·	0%	1%	-11%
> CCOc1ccc(Cn2c(CNS(=O)(=O)c3ccc(CC)cc3)nc3cccnc32)cc1
  15%[46.1 µM]	10%	·	·	-6.4%	·	63%[activator]	·
> CC1CCCCC1NC(=O)CCC(=O)N1CCOc2ccc(Cl)cc21 (stereo unspecified)
  -2%[46.1 µM]	·	-10%	-4%	·	14%	-6%	-20%[46.1 µM]
> O=C1Nc2ccccc2C1=Nc1ccccc1-c1ccccc1
  -11%	·	·	·	·	-3%	?	-24%
> COc1ccc(C(=O)NCC(=O)NCC(=O)OCC(=O)c2ccc(C)cc2)cc1
  -2%	·	-3%	2%	·	-14%	-17%	0%
> CCN(c1ccccc1)S(=O)(=O)c1ccc(C(=O)Nc2ccccn2)cc1
  ?	·	·	-3%	·	11%	-9%	2%
> O=C(CN(Cc1ccc(Cl)cc1)C(=O)CNS(=O)(=O)c1ccccc1)NCC1CCCO1 (stereo unspecified)
  2%	·	0%	12%	·	-21%	15%	?
> Cc1ccc(N2C(=O)c3cccc4cccc(c34)C2=O)cc1
  15%	·	8%	1%	·	7%	-10%	?
> O=C(CN1CCN(S(=O)(=O)c2ccccc2)CC1)Nc1ccccc1C(=O)c1ccccc1
  ?	2%	?	-11%	-2.5%	2%	0%	?
> CSc1nsc(SCC(=O)Nc2ccc(C(N)=O)cc2)n1
  ?	·	3%	3%	·	25%	20%	2%
> COc1ccc(NC(=O)COc2coc(CN3CCCc4ccccc43)cc2=O)cc1
  1%	·	·	-2%	·	-1%	-13%	14%

Continued:
Results follow in this order: Lassa entry inh	Cruzain inh noDet	NS1 inh	SARS PLP yeast	Cruzain Triton	RE007 growth inh	2A StopGo	MARV entry inh
> O=C(COC(=O)c1ccc(Br)cc1)NCc1ccccc1
  -2%	18%	-1%	18%	-3.0%	-16%	-6%	1%
> Cc1cc(C)nc(NC(=O)CSc2nn(-c3ccccc3)c(=S)s2)n1
  22%[46.1 µM]	·	1%	1%	·	1%	?	9%[46.1 µM]
> O=C1/C(=C/Nc2cccc([N+](=O)[O-])c2)CCc2ccccc21
  ?	-20%	-3%	-18%	-13%	11%	34%[activator]	?
> O=C1NC(=O)N(Cc2ccccc2)C(=O)/C1=C/C=C/c1ccco1
  ·	·	1%	-5%	·	1%	13µM*	·
> O=c1[nH]c(=O)n(CCOc2ccc(Cl)cc2)cc1Br
  10%	-3%	?	6%	3.3%	-18%	-26%	10%
> COc1cc(-c2noc(CCCC(=O)NCc3ccccc3)n2)cc(OC)c1OC
  -14%	21%	-15%	5%	1.3%	0%	-7%	-21%
> Cc1cccc(N(C(=O)CNC(=O)c2ccco2)C(C(=O)NC2CCCC2)c2ccncc2)c1C (stereo unspecified)
  ·	·	-4%	-1%	·	-7%	0%	-3%[46.1 µM]
> Fc1ccc(NC(=S)Nc2cccc3ccccc23)cc1
  ·	·	-15%	-5%	·	-3%	0%	·
> Cc1cc(C)cc(NC(=O)CN2CCc3cc4c(cc3C2C)OCCCO4)c1 (stereo unspecified)
  ·	·	-26%	-11%	·	6%	-21%	·
> COc1ccc(CNC(=O)C(C)Sc2nc(-c3ccccc3)cc(C(F)(F)F)n2)cc1 (stereo unspecified)
  -12%[46.1 µM]	4%	·	·	-1.2%	·	-16%	7%[46.1 µM]
> CCOc1cc2sc(N3CCC(C(=O)Nc4ccccc4C(=O)OC)CC3)nc2cc1Br
  ·	-1%	·	·	-0.8%	·	-14%	7%[46.1 µM]
> CC(=O)N1CCCN(C(=O)c2ccc3nc(Cc4ccccc4F)oc3c2)CC1
  4%	·	3%	-3%	·	?	7%	0%
